StopGo RLuc: FMDV 2A StopGo reporter, Renilla signal | HEK cells with a luciferase reporter of 2A StopGo recoding | Potency, µM (series often up to 57.5 µM), for the others: at the top dose signal change, negative = less light | actives 0.32% (n = 120,000) | AID 1745857; active means well fitted falling curve with a large enough effect; inconclusive means small, poorly fitted or top-dose-only effect; inactive means no such curve, though single readings can be large or run the other way; further: nearly all actives have a fitted effect of over 55% in size; overnight with compound
StopGo FLuc: FMDV 2A StopGo reporter, firefly signal; actives 0.23% (n = 120,000); Potency, µM (top dose mostly 57.5 µM), inactives show top-dose signal change, negative = less light; HEK cells with a luciferase reporter of 2A StopGo recoding; active = well fitted falling curve with a large enough effect; inconclusive = small, poorly fitted or top-dose-only effect; inactive = no such curve, though single readings can be large or run the other way; further: nearly all actives have a fitted effect of over 60% in size; overnight with compound
The depositor's hits bear a star; u = inconclusive; [ ] = another dose, or the depositor's remark. On the % scale 0 is the no-effect control and ±100 the full control effect; potency means the concentration at half of the fitted maximal effect. This is a subset. The share of hits here may be higher or lower than overall.

SMILES	StopGo RLuc	StopGo FLuc
O=C(COC(=O)c1nn(-c2ccccc2)c(=O)c2ccccc12)Nc1ccccc1Cl	-10%	0%
Cc1ccc(NC(=O)c2cc3nc(-c4ccccc4)cc(-c4ccccc4)n3n2)cc1	-13%	-12%
COc1ccccc1C(=O)Nc1c(NC2CCCCC2)c2ccccc2oc1=O	4%	-1%
O=C(NC1CCCC1)c1cc(-c2ccncc2)nc2c(Cl)cccc12	11%	0%
CC(=O)O[C@H]1CC[C@@]2(C)C(=CC[C@@H]3[C@@H]2CC[C@]2(C)C(C(C)=O)=CC[C@@H]32)C1	-13%	-21%
O=C(/C(C=Nc1ccccc1Cl)=C(/O)c1ccco1)C(F)(F)F	0%	-44%
CCCc1nc(SC)ncc1C(=O)Nc1ccccc1F	10%	21%
Cc1c(C(=O)Nc2cccc(C(F)(F)F)c2)oc2ccc(S(=O)(=O)N3CCC4(CC3)OCCO4)cc12	-10%	-14%
COc1ccc2cc(C(=O)N3CCC(C(C)C(=O)NCCCN4CCCC4)CC3)[nH]c2c1 (centres undefined)	-7%	-3%
Cc1ccc(CN(C(=O)Nc2cccc(Cl)c2)c2ccccn2)cc1	25%	72%[activator]
CCOc1ccc(C(=O)c2oc3ccccc3c2NC(=O)Cc2coc3cc(C)cc(C)c23)cc1	-6%	1%
COc1cc(Br)cc2cc(-c3nc(-c4ccccc4C)no3)c(=O)oc12	2%	16%
Cc1cccc(N(C)C(=O)Cn2nc(-c3ccc(Br)cc3)ccc2=O)c1	-2%	1%
CCOC(=O)c1ccc(O)c(O)c1	28%	-9%[11.5 µM]
Cc1ccc(-c2nc(CS(=O)(=O)CC3CCCO3)co2)c(C)c1 (centres undefined)	-5%	6%
Cc1nn(-c2ccccc2)c2c1N(CCCC(=O)NCc1ccc(N(C)C)cc1)C(=O)CS2	-12%	-14%
c1ccc2c(CNC3CC3)cccc2c1	11%	2%
CCCC[N+](CC#CCO)(CC#Cc1ccccc1)CCCC	4%	-7%
CC(=O)c1cccc(NC(=O)CC(C)c2ccccc2)c1 (centres undefined)	62%[activator]	0%
Cc1ccccc1/C=C(/C#N)C(=O)c1c(C)[nH]c2ccccc12	11%	-5%
O=C(O)/C=C/C(=O)Nc1ccc(Cl)c(C(F)(F)F)c1	4%	29%
CCn1c(=O)cc(OCC(=O)NCc2ccc(F)cc2Cl)c2ccccc21	36%[activator]	15%
CN(CC(=O)N1CCCC1)c1nc(-c2ccsc2)nc2ccccc12	24%	13%
Oc1ccc(C2(c3ccccc3)C=Cc3c(ccc4ccccc34)O2)cc1 (centres undefined)	u	-9%
Cn1nc(C(=O)Nc2cccc(Cl)c2)c2c1-c1ccsc1CC2	8%	201%[activator]

Exported as a markdown table: 2 of the compounds above
| compound | StopGo RLuc | StopGo FLuc |
| --- | --- | --- |
| CCCc1nc(SC)ncc1C(=O)Nc1ccccc1F | 10% | 21% |
| Cc1ccc(CN(C(=O)Nc2cccc(Cl)c2)c2ccccn2)cc1 | 25% | 72%[activator] |

Going on with the list.
SMILES	StopGo RLuc	StopGo FLuc
CCOC(=O)c1ccc(N2C(=O)c3n[nH]c(-c4cccs4)c3C2c2ccc(OCC)cc2)cc1 (centres undefined)	-13%	-28%
COc1ccc(/C=C\c2onc(C)c2S(=O)(=O)N2CCC(C(=O)Nc3ccc(C)c(F)c3)CC2)cc1	-10%	-10%
CC(=O)SC[C@@H](Cc1ccccc1)C(=O)NCC(=O)OCc1ccccc1	-16%	-23%
O=C(NCc1ccc(CN2CCCCC2)cc1)c1cc2ccccc2oc1=O	-10%	-4%
Fc1ccc(NC(=S)NC2CC2)cc1Cl	52%[activator]	25%
Cc1nn(C(C)C(=O)Nc2ccc(C(C)C)cc2)c(=O)c2c1sc1ccccc12 (centres undefined)	-4%	-19%
Cc1c(C(=O)O)oc2c1-c1nn(Cc3ccccc3Cl)cc1CC2	8%	0%
COCc1ccc(C(=O)NCC(C)c2ccccc2)cc1 (centres undefined)	3%	138%[activator]
N#CCCNC(=O)COC(=O)c1ccccc1-c1ncc(-c2ccc(F)cc2)o1	24%	31%[activator]
COC(=O)C1=C(C)N[C@]2(C)C[C@H]1c1ccccc1O2	3%	0%
COc1ccccc1NC(=O)C(=O)c1c[nH]c2ccccc12	-1%	200%[activator]
CC(CCc1ccccc1)NC(=O)N1CCN(S(=O)(=O)c2ccccc2C#N)CC1 (centres undefined)	-1%	-10%
CCCCOc1ccc(C(C)NC(=O)c2cccc(Nc3nc4ccccc4n4nnnc34)c2)cc1 (centres undefined)	-11%	79%[activator]
COC(=O)NNC(=O)C1CCC(C)CC1 (centres undefined)	-7%	3%
CCc1ccc(/C=C(/C#N)c2nc3ccccc3s2)cc1	26%	123%[activator]
Cc1ccccc1Nc1c(-c2cccnc2)nc2ccc(Cl)cn12	-8%	-17%
CCCNC(=O)Nc1cc(S(=O)(=O)N2CCOCC2)ccc1NCC1CCCO1 (centres undefined)	49%[activator]	5%
COc1ccc(C(=O)c2sc(NCc3ccccc3)nc2N)cc1	-4%	46%[activator]
COc1ccccc1CN1CCN(C2CCN(C(=O)Nc3ccccc3)CC2)C(=O)C1=O	-8%	-12%
CCCCC(=O)Nc1cccc(OCc2cc(=O)n3ccccc3n2)c1	3%	33%[activator]
O=C(NCC(F)(F)F)C1CCN(C(=O)c2ccc(Br)cc2)CC1	1%	24%
COc1ccccc1Cn1ccn(Cc2ccc(C)cc2)c(=O)c1=O	-5%	17%
COc1cccc(CC(=O)NCc2ccc3c(c2)CCN3C(C)=O)c1	2%	43%[activator]
CC1CCC(NC(=O)c2csc3c2CCCC3)CC1 (centres undefined)	6%	170%[activator]
Cc1[nH]c2ccc(C(=O)N(C)CCOc3ccccc3)cc2c1C	10%	45%[activator]
Carrying on:
SMILES	StopGo RLuc	StopGo FLuc
CC(Sc1ncc(-c2cccc(Br)c2)o1)C(=O)NCCc1ccccc1 (centres undefined)	-6%	3%
O=C(NCc1ccccc1)c1ccc2c(c1)N(Cc1ccc(F)cc1)CCS2	161%[activator]	-8%
COc1ccc(C2=NS(=O)(=O)N(C)C(C(=O)NC(C)c3ccccc3)=C2)cc1OC (centres undefined)	18%	-9%
COC(=O)c1cccc(NC(=O)C23CC4CC(C2)CC(C(=O)Nc2cccc(C(=O)OC)c2)(C4)C3)c1	3%[1.06 µM]	-2%
O=C(NC1CCCCC1)C1=Cc2cc(Cl)ccc2OC=C1	-5%	12%
CCC(=O)N1CCc2cc(Br)cc(S(=O)(=O)CCC(=O)NCc3ccccc3)c21	-1%	-21%
COc1ccc(C(=O)Nc2ccc3c(c2)nc(CN2CCCCCC2)n3C)cc1OC	u	3%
Cc1[nH]c2ccc(C(=O)NC3(C)CCS(=O)(=O)C3)cc2c1C (centres undefined)	11%	20%
O=C(Nc1cccc(C(F)(F)F)c1)C1CCCN1S(=O)(=O)c1cccc2nsnc12 (centres undefined)	u	u
Cc1nn(S(=O)(=O)c2ccc(F)cc2)c(C)c1S(=O)(=O)N1CCCCC1	4%	-15%
COc1cc(C2c3c(-c4ccccc4O)n[nH]c3C(=O)N2Cc2ccco2)ccc1OCC(C)C (centres undefined)	39%[activator]	-13%
COc1ccc(OC)c(NC(=O)c2ccc3nc(C(C)C)oc3c2)c1	-3%	-1%
Cc1c2cnn(-c3ccccc3)c(=O)c2c(C)n1CC(=O)N1CCN(c2cccc(Cl)c2)CC1	-3%	-8%
O=C(NCc1ccccc1)c1ccc2nc(CCc3ccccc3)oc2c1	23%	85%[activator]
CCc1ccc(-c2nc(CSCC(=O)NCc3cccs3)c(C)o2)cc1	-25%	-6%
N#Cc1ccc(OCc2cccc(C(F)(F)F)c2)cc1	9%	0%
COc1ccc(-c2nnc(SCC(=O)N3CCc4ccccc43)o2)cc1OC	-1%	-5%
CCOc1ccc(CCNC(=O)CCc2c(C)nc3c(c(C)nn3-c3ccccc3)c2C)cc1OCC	1%	-9%
C=CCc1c(C)nc(Nc2nc(C)c3ccccc3n2)[nH]c1=O	4%	8%
CC(C)CC(NC(=O)C1CCCCC1)C(=O)Nc1cccc(C(F)(F)F)c1 (centres undefined)	-7%	-7%
COc1ccc(C(=O)Nc2ccc(Cl)cc2C(=O)N2CCOCC2)cc1	70%[activator]	4%
Cc1ccccc1C(=O)Nc1ccc2oc(-c3ccccc3F)nc2c1	u	12%
CC(C)C(N)c1ccc2c(c1)OCCCO2 (centres undefined)	-4%	-4%
CCN1CCN(S(=O)(=O)c2ccc(NC(=O)CCc3ncc(-c4ccccc4F)o3)cc2)CC1	-5%	18%
Cc1c(Cl)cccc1NC(=O)c1cnc2sc(N3CCCC3)nn2c1=O	4%	-11%

Among those listed so far, 7 contain a CF3 group:
SMILES	StopGo RLuc	StopGo FLuc
O=C(/C(C=Nc1ccccc1Cl)=C(/O)c1ccco1)C(F)(F)F	0%	-44%
Cc1c(C(=O)Nc2cccc(C(F)(F)F)c2)oc2ccc(S(=O)(=O)N3CCC4(CC3)OCCO4)cc12	-10%	-14%
O=C(O)/C=C/C(=O)Nc1ccc(Cl)c(C(F)(F)F)c1	4%	29%
O=C(NCC(F)(F)F)C1CCN(C(=O)c2ccc(Br)cc2)CC1	1%	24%
O=C(Nc1cccc(C(F)(F)F)c1)C1CCCN1S(=O)(=O)c1cccc2nsnc12 (centres undefined)	u	u
N#Cc1ccc(OCc2cccc(C(F)(F)F)c2)cc1	9%	0%
CC(C)CC(NC(=O)C1CCCCC1)C(=O)Nc1cccc(C(F)(F)F)c1 (centres undefined)	-7%	-7%

Carrying on.
SMILES	StopGo RLuc	StopGo FLuc
COc1ccc(Nc2cc(C(=O)NCc3ccccc3)c3ccccc3n2)cc1	1%	30%
O=C(CCCC(=O)N1CCN(C(=O)c2cc3ccccc3[nH]2)CC1)N1CCCCC1	-2%	6%
COc1cc(C(C)=O)ccc1OCC(=O)OCc1ccc2c(c1)OCO2	2%	-3%
COc1cccc(-c2cc(C(F)(F)F)n3nc(C)c(-c4ccccc4)c3n2)c1	-9%	-16%
COc1cccc(C(C(=O)NCc2ccccc2)N(C(=O)Cn2nnc3ccccc32)c2cccc(C(C)=O)c2)c1 (centres undefined)	10%	-8%
Cc1cccc(C)c1NC(=O)C(C)N1CCN(C(=O)c2cccs2)CC1 (centres undefined)	-4%	-3%
CCc1noc(C)c1C(=O)Nc1ccccc1C(C)(C)C	-2%	0%
COc1ccc(CN(C)C(=O)NCc2nc(C)cs2)cc1	-9%	2%
COc1cccc(CNC(=O)c2ccc(CS(=O)c3ccccc3Cl)o2)c1 (centres undefined)	-2%	7%
CNc1oc(-c2cc(S(=O)(=O)N3CCCC3)c(C)o2)nc1C#N	34%	11%
COc1ccccc1NC(=O)COc1ccc(C)cc1-n1cnnc1	-6%	2%
CN1CCN(c2ccc(NC(=O)c3ccccc3F)nc2)CC1	-9%	u
CCN(CC)C(=O)Oc1ccc2cc(-c3ccccc3)c(=O)oc2c1	20%	164%[activator]
Cc1c(C)n(CCCN(C)C)c2ncn3nc(-c4ccccn4)nc3c12	-1%	32%[activator]
N#Cc1nc(-c2ccccc2F)oc1N1CCN(C(=O)c2ccco2)CC1	2%	14%
COc1ccc2[nH]c(C(=O)N3CCc4ccccc4C3)cc2c1	47%[activator]	0%
CN(C)c1ccc(C(=O)Nc2cccc(-c3nc4cccnc4s3)c2)cc1	-10%	53%[activator]
CCOc1ccc(N(CC)C(=O)CSc2n[nH]c(-c3ccccc3)n2)cc1	u	u
Cc1ccc(CNS(=O)(=O)c2cc3c(cc2C)NC(=O)CO3)cc1	90%[activator]	15%
NCCc1cc(O)c(O)cc1O	-5%	-1%
Cc1cccn2cc(-c3cccc(NS(=O)(=O)c4ccc(Cl)c(Cl)c4)c3)nc12	129%[activator]	3%
CCOc1ccccc1NC1(c2ccccc2)C(=O)c2ccccc2C1=O	-4%	0%
Cc1ccc(Cl)cc1NC(=O)N(C)Cc1nc(-c2ccccc2C)oc1C	7%	6%
Cc1ccc2c(=O)cc(C(=O)N(Cc3ccc(N(C)C)cc3)C3CCS(=O)(=O)C3)oc2c1 (centres undefined)	-4%	-8%
O=C(CSc1nc(CN2CCOCC2)nc2ccccc12)N1CCN(Cc2ccccc2)CC1	-23%	-11%
COc1ccc(C(=O)COc2ccc3c(C)cc(=O)oc3c2)cc1	-4%	8%
CC1CCCN(Cc2nc3c(c(=O)n(C)c(=O)n3C)n2Cc2c(F)cccc2Cl)C1 (centres undefined)	-2%	-4%
Cn1c(SCC(=O)NCC2CN(Cc3ccccc3)CCO2)nnc1-c1ccc(C(C)(C)C)cc1 (centres undefined)	u	u
CC(C)Oc1ccccc1-c1noc(-c2ccc(S(=O)(=O)NC3CC3)o2)n1	78%[activator]	-1%
COc1ccc(N2CCN(C(=O)c3ccc(C)c(NC(=O)c4nsc5ccccc45)c3)CC2)cc1	-9%	5%

Random excerpt: 2 entries already listed
SMILES	StopGo RLuc	StopGo FLuc
COc1cccc(C(C(=O)NCc2ccccc2)N(C(=O)Cn2nnc3ccccc32)c2cccc(C(C)=O)c2)c1 (centres undefined)	10%	-8%
COc1ccc(CN(C)C(=O)NCc2nc(C)cs2)cc1	-9%	2%

Record cards, from the list above.
Cc1ccc(Cl)cc1NC(=O)N(C)Cc1nc(-c2ccccc2C)oc1C is entered as StopGo RLuc: 7%; StopGo FLuc: 6%
Cc1ccc2c(=O)cc(C(=O)N(Cc3ccc(N(C)C)cc3)C3CCS(=O)(=O)C3)oc2c1 (centres undefined) is entered as StopGo RLuc: -4%; StopGo FLuc: -8%

Source: PubChem BioAssay (National Center for Advancing Translational Sciences (NCATS))
